# Biofilm kill mix: clotrimazole potentiators killing C. albicans biofilm, primary screen, 4-compound mixtures. C. albicans biofilm persisters + clotrimazole, fluorescence viability; primary screen in compound mixtures of four per well. AID 1242, 2008. inhibition, % at 7.6 µM. 0.02% of 120,000 active;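 active = inhibition above 30.3% in the primary screen of four-compound pools, then above 30% when the compound was retested; inconclusive = passed the primary limit but could not be retested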;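 also: compounds exposed to preformed 24 h biofilms for 48 h; the number belongs to the whole pool; some results filed as inactive read as strong as hits; inactives centre near 12; 0% = biofilm with clotrimazole alone and 100% = kill control; retested singly at about 60 µM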
#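 Test system: C. albicans biofilms. Buffer or medium: RPMI/MOPS medium, pH 7.0. Timing: 48 h compound exposure at 37 °C. Technique: Alamar Blue fluorescence. Evaluation: percent inhibition of biofilm viability.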
# An asterisk follows results filed as active; u = inconclusive. Some of the compounds tested. The share of hits here may be higher or lower than overall.
canonical_smiles | Biofilm kill mix
COC(=O)c1c(NC(=O)CN2CCN(S(=O)(=O)c3ccccc3)CC2)sc2c1CCC(C)C2 (stereo not drawn) | 6.6
CC(=O)c1cccc(NC(=O)c2ccc3c(Cl)c4c(nc3c2)CCCC4)c1 | 18.3
Cc1nc2ccccn2c1C(=O)NN | 17.2
CC(=O)c1sc(Nc2cccc(C)c2)nc1C | -2.1
O=C(CSc1nnc(Nc2ccccc2F)s1)c1cc2ccccc2o1 | 16.6
CCNc1nc(NC(C)CC)nc(Oc2ccc(OCC)nn2)n1 (stereo not drawn) | 8.7
CCn1c(=NC(=O)C2COc3ccccc3O2)sc2c(OC)ccc(OC)c21 (stereo not drawn) | 20.6
COC(=O)[C@@H]1C[C@@H]2CC[C@@H](O)C[C@@H]2N1Cc1ccc(OC)cc1 | 9.6
COc1ccc(C2OC(=O)C(C)(C)C(=O)C2(C)C)cc1OC (stereo not drawn) | -4.0
COc1ccc(-n2c(=S)[nH]c3cc(C(=O)Nc4ccccc4OC)ccc3c2=O)cc1 | 21.5
O=C(/C=C/c1ccc(F)cc1)Nc1nc2ccccc2[nH]1 | 14.4
CCCCn1c(-c2c(Cl)c(C)nn2C)n[nH]c1=S | 15.7
O=C(COC(=O)Cc1ccc(F)cc1)NCc1ccco1 | 1.7
CC(C(=O)NC1C(=O)N2C(C(=O)O)=C(CSc3nnnn3C)CSC12)n1cc(Br)cn1 (stereo not drawn) | 9.1
O=C(CCc1ccc(S(=O)(=O)N2CCOCC2)cc1)N/N=C/c1ccc(O)c(O)c1O | 9.2
Cc1cccn2cc(CCNS(=O)(=O)c3cccs3)nc12 | 10.4
Cc1c(-c2ccccc2)n[nH]c1C(=O)NN | 10.6
O=C(NCc1ccccc1Cl)c1ccc(CSc2nc3ccncc3[nH]2)cc1 | 25.9
COc1ccccc1Nc1ccc(S(=O)(=O)N2CCCCC2)cc1[N+](=O)[O-] | 18.6
CCCCn1c(SCC(=O)Nc2ccc3c(c2)CCC3)nc2ccccc2c1=O | 12.0
CCC(C)NC(=O)Nc1ccccc1F (stereo not drawn) | 10.0
CC(C)N(CC#CCC(O)(c1ccccc1)c1ccccc1)CCO | 17.6
COc1ccc([C@@H]2C(C#N)=C(N)S[C@@H](c3ccccc3)[C@@H]2[N+](=O)[O-])cc1 | 11.3
Nc1cc(=O)[nH]c(SCC(=O)Nc2ccccc2Sc2ccc(Cl)cc2)n1 | 7.9
CC/C(=N\NC(=O)CSCc1ccccc1Cl)c1ccc2c(c1)OCCO2 | 14.8
O=C(c1ccc2c(c1)OCO2)N(Cc1cccs1)C1(C(=O)NC2CCCCC2)CCCCC1 | 16.7
COc1cccc(N2CCN(C(=O)CCCCCNc3nc(=S)[nH]c4ccccc34)CC2)c1 | 2.3
N#C/C(=C/c1ccc([N+](=O)[O-])cc1)C(N)=O | 14.1
O=C(COc1cccc2cccnc12)Nc1ccccc1N1CCOCC1 | 11.1
CC(/C=C/c1ccc2c(c1)OCO2)=N/NC(=O)c1ccc(C)nc1 | 15.1
CSc1nc(=S)cc(C)[nH]1 | 1.4
CCC(C)(C)NC(=O)c1ccc(Sc2nncn2C)c([N+](=O)[O-])c1 | 17.0
Cc1cccc2c1NC(=O)C21N2CCCC2C(C(=O)c2ccc3ccccc3c2)C12C(=O)Nc1ccccc12 (stereo not drawn) | 10.9
Cc1cccc(NC(=O)COC(=O)c2cc3ccccc3oc2=O)c1 | 14.9
CCN(C(=O)c1cc2c(=O)[nH]c3ccc(C)cc3c2s1)c1ccccc1C | 27.0
CCCC1=NN2C(=N)/C(=C\c3cc(C)n(-c4cc(C)cc(C)c4)c3C)C(=O)N=C2S1 | -4.0
Cc1cc(C)c(C#N)c(SCc2nc3ccccc3c(=O)[nH]2)n1 | 16.1
Cc1nc2ccccc2c(=O)n1/N=C/C=C/c1ccccc1 | 15.7
O=C(C[n+]1ccccc1)Nc1nc2ccccc2s1 | 12.2
COc1ccccc1NC(=O)CSc1nnnn1-c1ccc(C(=O)O)cc1 | 9.6
O=C(O)c1cccc(CN2C(=O)S/C(=C/c3cccc([N+](=O)[O-])c3)C2=O)c1 | 13.8
Cc1ccc(NC(=S)Nc2ccc(S(=O)(=O)Nc3ncccn3)cc2)cc1Cl | 12.9
CCc1cccc(CC)c1C(O)c1cccnc1 (stereo not drawn) | 16.4
CC(C)(C)c1ccc(N/N=C(\C#N)S(=O)(=O)C(C)(C)C)cc1 | 12.1
Cc1cc(NS(=O)(=O)c2ccccc2)c([N+](=O)[O-])cc1C | 8.5
Cc1ccccc1/C=N/N1CCN(c2ccccc2)CC1 | 6.0
COc1ccc(-n2cnnc2SCC(=O)Nc2cc(S(=O)(=O)N3CCCCC3)ccc2C)cc1 | 8.6
C=CCn1c(SCC(=O)Nc2ccccc2-c2ccccc2)nc2cc(C(=O)O)ccc2c1=O | 0.8
COc1ccccc1NCC(=O)N/N=C/C=C/c1ccccc1 | 14.9
COc1ccc(/C=N/Nc2nc(-c3ccc(Cl)cc3)cc(C(F)(F)F)n2)cc1OC | 4.8

# New compounds follow.
canonical_smiles | Biofilm kill mix
Cc1nnc(SCC(=O)Nc2ccc(N(C)C)cc2)n(N)c1=O | 10.4
O=C(O)/C=C/c1cn(-c2ccccc2)nc1-c1cc2ccccc2o1 | 16.7
O=[N+]([O-])c1ccc(Cl)cc1NCCCN1CCOCC1 | u
O=C(Cc1ccc(F)cc1)OCn1nnc2ccccc2c1=O | 26.4
NC(=NCCc1c[nH]c2ccccc12)NS(=O)(=O)c1cc(F)ccc1F | 11.2
CCOc1ccc(S(=O)(=O)N(C)c2ccc(OCC(=O)N3c4ccc(C)cc4C4CN(C)CCC43)cc2)cc1 (stereo not drawn) | 9.8
Cc1ccc(NC(=S)Nc2ccccn2)cc1C | 9.6
CCC1=[N+](C)c2cccc3cccc(c23)N1C | 23.2
CC1(C)CC(NC(=O)c2c(N)no[n+]2[O-])CC(C)(C)N1 | -4.7
CC(C)(C#CCN1CCCCC1)OCCOC(c1ccccc1)c1ccccc1 | 8.1
CC/C=C/C(=O)N1CC2(CC(c3cccc(NC(=O)CC)c3)=NO2)C[C@H]1C(N)=O (stereo partly drawn) | 10.7
CCC1=C(OC(=O)N(CC)CC)N2C(=O)OC(=NCCc3c[nH]c4ccccc34)[C@]2(Cc2ccccc2)[C@H]2C1=CC[C@H]1C(=O)N(c3ccccc3)C(=O)[C@H]12 | 5.7
O=S(=O)(Cc1noc(-c2ccc(OC(F)(F)F)cc2)n1)c1ccc(F)cc1 | 17.1
O=C1Cc2ccccc2C(=O)N1OCc1ccc(Cl)cc1 | 16.1
CC(NC(=O)C12CC3(C)CC(C)(CC(C)(C3)C1)C2)C(=O)O (stereo not drawn) | 13.5
O=C(c1ccccc1)N1CCN(C(=O)c2ccc3c(c2)OCCO3)CC1 | -5.8
CCC(C)NC(=O)c1cc(Sc2nnc(C)s2)nc2ccccc12 (stereo not drawn) | 11.9
Cc1ccc(C(=O)Nc2ccccc2C(=O)N2CCCC2)cc1[N+](=O)[O-] | -0.7
COCCN(CCOC)C(=O)c1ccc(SCc2ccc(C)cc2)c([N+](=O)[O-])c1 | 12.9
CN(C)/C=N/c1cc(=O)n(C)c(=O)n1Cc1ccccc1 | 20.4
C=C1N(c2ccccc2)C(=O)OC1(C)C | 7.7
Cc1ccc(S(=O)(=O)c2ccc(Cl)cc2)cc1S(=O)(=O)N(C)CC(=O)O | 5.5
O=C1S/C(=C\c2ccc(O)c([N+](=O)[O-])c2)C(=O)N1c1ccccc1Cl | 7.9
O=C(Cc1ccccc1)NCC(=O)OCC(=O)c1ccc([N+](=O)[O-])cc1 | 20.9
Cc1cc(C2=NNC(=NC3CC3)SC2)c(C)n1Cc1ccco1 | 11.1
C/C(=N\N=c1/sc2ccccc2n1C)c1ccc(N2CCOCC2)cc1 | 15.7
O=C(NC12CC3CC(CC(C3)C1)C2)N1CCN(C2CCCCC2)CC1 | 24.2
COc1ccc(C(=O)COC(=O)CCN2C(=O)[C@@H]3[C@H](C2=O)[C@@H]2C[C@H]3C(Br)C2Br)cc1 (stereo partly drawn) | -12.4
S=C(NCc1ccco1)N1CCN(c2ccccc2Cl)CC1 | 0.3
O=C(COc1ccccc1C(=O)c1cnn(-c2ccccc2)c1)Nc1ccccc1 | -4.3
C=C1SC(Nc2c(C)cc(C)cc2C)=NC12CCCCC2 | 10.0
Cn1cccc1/C=N/NC(=O)Cc1ccccc1 | 12.8
O=C(Nc1cc([N+](=O)[O-])ccc1N1CCCC1)c1ccccc1 | 15.9
Cc1nn(C)cc1CNC(=O)Nc1ccc(Cl)cc1 | 18.3
CCCCC(=O)C1=C(N2CCCC2)CC(C)(C)CC1=O | 19.5
COc1ccc(OC)c(Cc2nnc(CCC(=O)NC3CCCC3)o2)c1 | 4.9
CCCN1CCN(C(=S)Nc2sc(CC)cc2C(=O)OC)CC1 | 11.9
CCC(C)n1ncn(-c2ccc(N3CCN(c4ccc(OC)cc4)CC3)cc2)c1=O (stereo not drawn) | 18.1
COc1cc(C(=O)NCc2ccc(C)cc2)ccc1OC(F)F | 7.6
Fc1ccc(CNC(=S)Nc2cccc(Cl)c2)cc1 | 5.9
O=C(NCc1cccs1)c1cc(-c2ccccn2)nc2ccc(Br)cc12 | 40.0
COc1ccc(C(=O)Nc2ccc3c(c2)C(=O)c2ccccc2C3=O)cc1OC | 12.3
OC[C@@H]1CCCN1Cc1cn(-c2ccccc2)nc1-c1ccc2c(c1)OCO2 | 16.3
O=C(C1=C[C@H](C2CCCCC2)C[C@H](OCc2ccc(CO)cc2)O1)N1CCN(Cc2ccccc2)CC1 | 10.9
Cc1ccc(C(=O)N/C(=C\c2ccco2)C(=O)N2CCSCC2)cc1C | -4.2
COC(=O)c1c(NC(=O)Cn2cnc([N+](=O)[O-])n2)sc2c1CCC(C)C2 (stereo not drawn) | 13.4
CC(=O)NC(=S)Nc1ccc(S(=O)(=O)N(C)Cc2ccccc2)cc1 | 12.6
COc1cccc(-c2csc(N3CCN(C(=O)Nc4ccc(F)cc4)CC3)n2)c1 | 16.4
COC(=O)C1C(O)CCC2CN3CCc4c([nH]c5ccccc45)C3CC21 (stereo not drawn) | 19.3
Cc1cc(C)c2c(CC(=O)NC(C)C)coc2c1 | 0.7

# New compounds follow.
canonical_smiles | Biofilm kill mix
Cc1cc(NC(=O)CN2CCCCC2)n(-c2ccccc2)n1 | 5.5
CSc1ccccc1NC(=O)COC(=O)c1ccccc1Cc1ccccc1 | 9.4
COc1ccc(CSc2nc(C)cc(C)c2C#N)cc1 | 5.0
C=CCNc1nc(Nc2ccc(Cl)cc2)nc(OC)n1 | 33.5
CCOC(=O)c1cc(C#N)c(N2CCN(C)CC2)nc1-c1ccccc1 | 2.2
CN(C)CCCNc1cc(C(C)(C)C)nc2c(-c3ccccc3)cnn12 | -18.3
CCCc1nc(-c2cc3cc(C)ccc3[nH]c2=O)no1 | 14.4
CN=C(NC1CCCCC1)c1ccc(Cl)cc1 | 17.7
COc1ccc(CCNC(=O)Cn2c([N+](=O)[O-])cnc2C)cc1OC | 13.9
COc1ccc(C(=O)O)cc1S(=O)(=O)NCCc1ccccn1 | -6.1
O=c1c2[nH]c3ccc(F)cc3c2ncn1CC1CCCO1 (stereo not drawn) | 9.2
CC1=CC(=O)C(C(C)=Nc2ccccc2Cl)C(=O)O1 (stereo not drawn) | 4.7
O=C(Nc1cccc(O)c1)c1cc2nc(-c3ccccc3)cc(-c3ccccc3)n2n1 | 11.7
COc1cccc(CNc2cccc(C(F)(F)F)c2)c1O | 13.1
O=C(NC1CCCCC1)C(c1cccnc1)N(C(=O)CCl)c1ccc(F)cc1 (stereo not drawn) | 10.6
CC(C)N(Cc1nc(COc2ccccc2)no1)Cc1nccn1C | 3.5
CN(C)CCCNC(=S)N(Cc1cccs1)Cc1cc2cc3c(cc2[nH]c1=O)OCCO3 | 18.3
COc1ccc(Cc2nnc(NC(C)=O)s2)cc1 | 24.9
COc1ccc(Cl)cc1NC(=O)CCc1nc(-c2ccccc2F)no1 | 12.3
CCCCOc1ccc(C(=O)Nc2ccc(SC(F)F)cc2)cc1OC | 14.4
O=C(NCCn1cccn1)c1ccc(OC2CCN(CCc3ccccc3)CC2)cc1 | 10.0
CS(=O)(=O)c1cnc(-c2ccccc2)nc1-c1ccc(Cl)c(Cl)c1 | 9.4
Clc1cccc(-c2nc(NCC3CCCO3)c3ccccc3n2)c1 (stereo not drawn) | 10.9
OC(CSc1ccc(F)cc1)CN1CCN(c2ccccc2)CC1 (stereo not drawn) | 12.6
O=C(O)CCc1nnc(SCC(=O)Nc2cccc(C(F)(F)F)c2)[nH]c1=O | 22.7
O=C(CCc1ccccc1)OCC(=O)c1cccc([N+](=O)[O-])c1 | 4.2
CCOCCCNCc1ccc(OCc2ccccc2Cl)cc1 | 6.3
CCO[C@@H]1OC(C(=O)N2CCOCC2)=C[C@H](c2coc3ccccc3c2=O)[C@H]1CCCO | 14.1
Fc1cccc(Cc2noc(CN3CCN(c4cnccn4)CC3)n2)c1 | 10.1

# Shown with each value named: 4 of the compounds above
CCOCCCNCc1ccc(OCc2ccccc2Cl)cc1
- Biofilm kill mix = 6.3

O=C(O)CCc1nnc(SCC(=O)Nc2cccc(C(F)(F)F)c2)[nH]c1=O
- Biofilm kill mix = 22.7

Clc1cccc(-c2nc(NCC3CCCO3)c3ccccc3n2)c1 (stereo not drawn)
- Biofilm kill mix = 10.9

O=C(CCc1ccccc1)OCC(=O)c1cccc([N+](=O)[O-])c1
- Biofilm kill mix = 4.2

# High-throughput results from PubChem BioAssay.
